Screening results (PubChem)
HNF4A DNA FP – change in binding of human HNF4 alpha to DNA. P41235. HNF4a-FITC DNA binding, fluorescence polarization, 1 h. activity change, % at 10 µM. 360,000 compounds, 0.3% hits; in the data active = activity change above about 30%, passing the limit was not always enough;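 also: controls were the assay level and a saturating level of protein; the project sought stronger binding though the title names inhibitors; some compounds called inactive have numbers as strong as hits; positive values seem to mean higher polarization but the record does not say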
Target sequence (P41235 whole entry, looked up): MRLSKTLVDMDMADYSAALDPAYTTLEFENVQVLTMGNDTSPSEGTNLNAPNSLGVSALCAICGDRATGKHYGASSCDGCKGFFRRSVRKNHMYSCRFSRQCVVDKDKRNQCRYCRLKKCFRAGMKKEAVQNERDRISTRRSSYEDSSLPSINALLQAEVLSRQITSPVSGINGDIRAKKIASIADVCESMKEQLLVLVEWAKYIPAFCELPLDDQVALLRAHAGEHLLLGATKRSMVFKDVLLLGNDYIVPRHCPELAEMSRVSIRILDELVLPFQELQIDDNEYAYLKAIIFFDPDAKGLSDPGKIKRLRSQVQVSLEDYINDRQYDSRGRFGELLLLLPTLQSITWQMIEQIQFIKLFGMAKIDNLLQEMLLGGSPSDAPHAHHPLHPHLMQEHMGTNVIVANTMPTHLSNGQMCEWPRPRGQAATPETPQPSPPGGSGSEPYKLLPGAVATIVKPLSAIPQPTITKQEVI
FGF22 binding – shifts melting point of recombinant human FGF22 | 340,000 compounds, 1.5% hits | calls only at 9.99 µM | recombinant FGF22 thermal shift, SYPRO orange fluorescence; percent of sucrose octasulfate shift, DMSO zero | AID 651658;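 active = melting point raised past a set limit in the mean and every replicate; three in four hits are not shown here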
Target sequence (Q9HCT0 whole entry, looked up): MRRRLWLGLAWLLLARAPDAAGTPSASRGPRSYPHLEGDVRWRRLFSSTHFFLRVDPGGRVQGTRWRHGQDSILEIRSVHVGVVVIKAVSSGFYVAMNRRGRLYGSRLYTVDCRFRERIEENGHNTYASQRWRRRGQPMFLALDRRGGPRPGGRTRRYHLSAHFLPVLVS
UCH37 inh – human UCH37 deubiquitinating enzyme inhibition | 330,000 compounds, 0.33% hits | inhibition, % (concentration not given with the values) | purified proteasome/UCH37, Ub-AMC cleavage fluorescence;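 active = mean of two replicates above 20%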;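 also: 0% = compound-free wells with enzyme and 100% = wells lacking proteasome; stock transfer was 100 nL into about 20 µL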
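assay system = human UCH37 enzyme supplied as purified proteasome complex | amount = proteasome at 0.15 nM in the dispensed enzyme solution | schedule = 30 min compound-proteasome preincubation then 25 min substrate reaction, room temperature | measured by = fluorescence, ex 355 nm, em 460 nm | benchmarks = no-proteasome wells (full inhibition) and compound-free wells (no inhibition)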
Beta2AR agonist – activates human beta-2 adrenergic receptor causing internalization; P07550; Am2.2-beta2AR cells, FAP receptor internalization, flow cytometry; reference of the scale not given here; response, % (no concentration beside the values); 340,000 compounds, 0.43% hits;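 active = response above a set limit, near 3 SD of response in nonfluorescent compounds, cut at about 42% in these data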;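 also: stock transfer was 100 nL into about 11 µL; a reference agonist was the positive control; negative values mostly stem from fluorescent compounds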
E coli growth – E. coli growth inhibition. AID 1053175. 330,000 compounds, 0.21% hits. OD600 absorbance (test concentration not listed). Escherichia coli growth, OD600, 23 h; hits give low values;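 active = OD600 absorbance below the run mean of sample wells minus 3.6 SD, in any replicate, cut at about 0.56 in these data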;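 also: stock transfer was 300 nL into about 60 µL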
rRNA inh HTS – selective bacterial rRNA inhibition in E. coli; AID 720706; 350,000 compounds, 1.6% hits; E. coli WT GFP vs humanized-ribosome RFP mutants, fluorescence, 24 h; hits give low values; DMSO median 0, no signal -100; GFP signal change (wild-type ribosome), % (test concentration not listed);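 active = significant combined selectivity score with lowered wild-type GFP, culture density cut under 30%, mutant RFP and density less affected; inactive = any of these conditions unmet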; also: one replicate is shown; some compounds called inactive have numbers as strong as hits
ALR H2O2 inh – human ALR oxidase inhibition via reduced H2O2; 290,000 compounds, 3.8% hits; purified ALR, DTT oxidation, H2O2 HRP-luminol luminescence; P55789; inhibition, % (concentration not given with the values);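 active = mean and each replicate at 75% or more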;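 also: stock transfer was 7.5 nL into about 7.5 µL; 0% = neutral wells and 100% = wells with inactivated enzyme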
Target sequence (P55789 whole entry, looked up): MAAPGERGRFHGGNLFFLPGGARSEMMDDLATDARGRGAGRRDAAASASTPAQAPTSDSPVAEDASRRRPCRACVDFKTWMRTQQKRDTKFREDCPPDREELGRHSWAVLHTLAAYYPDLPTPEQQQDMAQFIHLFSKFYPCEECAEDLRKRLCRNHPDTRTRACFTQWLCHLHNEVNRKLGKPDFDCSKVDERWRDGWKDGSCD
rRNA inh HTS OD600 – also measured in rRNA inh HTS; calls as there; OD600 change, %; measured here: OD600 growth;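 optical density of the mix in the first replicate; 0 = DMSO median and -100 = no signal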
rRNA inh HTS RFP – recorded beside rRNA inh HTS, whose call it bears; RFP signal change, %; measured here: RFP humanized mutant strains;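 first replicate; 0 = DMSO median and -100 = no signal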
The depositor's hits bear a star; i = inactive; · = not tested or not shown; + = active, no number. The list is partial; rates above refer to the full screens.

SMILES	HNF4A DNA FP	FGF22 binding	UCH37 inh	Beta2AR agonist	E coli growth	rRNA inh HTS	rRNA inh HTS OD600	rRNA inh HTS RFP	ALR H2O2 inh
CN(C)c1oc(-c2ccco2)nc1C#N	1.5	·	-61.2	-3.8	0.689	·	·	·	-5.7
CC(=O)c1ccc(NC(=O)CSc2ccc(-c3ccc4c(c3)OCO4)nn2)cc1	20.9	·	-0.1	-2.5	0.714	·	·	·	-25.6
CC1(Cc2ccccc2Cl)C(=O)Nc2c(Cl)ccc(Cl)c21 (stereo not drawn)	-0.1	i	·	·	·	-31.8	-43.1	-2.9	·
O=C(Nc1ccccc1C(=O)N1CCCCCC1)c1ccccc1Cl	6.6	i	2.7	1.1	0.722	5.7	-3.6	2.4	1.6
COC(=O)Cc1ccc(NC(=S)N2CCN(c3ccc(OC)cc3)CC2)cc1	-3.2	i	3.5	1.0	0.717	9.1	13.5	-11.3	25.5
C=CCn1c(SCC(=O)NCc2ccc3c(c2)OCO3)nnc1C1CCCCC1	1.3	·	0.1	0.6	0.697	·	·	·	-4.5
Cc1cc(C)c(NC(=O)c2cn3c4c(c(N5CCN(C)CC5)c(F)cc4c2=O)OCC3C)c(C)c1 (stereo not drawn)	2.7	i	-253.8	-15.6	0.049*	-49.0	-77.9	-20.9	·
CN1CCN(c2cc3c(cc2F)c(=O)c(C(=O)O)cn3CCF)CC1	5.3	i	·	6.3	·	-53.5	-81.1	-30.1	-3.0
CCOc1cc(/C=N/O)ccc1OCc1ccc(C)cc1	0.1	i	·	2.2	·	-34.8	-25.1	-2.7	98.0*
CCc1cccc(N(C(=O)c2csnn2)C(C(=O)NC(C)(C)C)c2ccncc2)c1 (stereo not drawn)	-0.6	i	4.3	3.3	0.718	4.1	1.1	-1.2	-19.0
COc1ccc(C(=S)Nc2ccc(N(C)C)cc2)cc1	4.6	·	1.5	5.0	0.758	·	·	·	99.2*
CCCSC(=S)NC1CCS(=O)(=O)C1 (stereo not drawn)	-4.3	·	3.7	7.4	0.653	·	·	·	0.7
Cc1ccc(Cl)c(OCC(=O)Nc2ccccc2C(=O)NC2CC2)c1	1.2	i	0.5	0.5	0.693	5.2	2.3	1.6	2.4
OCCN(CCO)c1ncnc2c1sc1nc(N3CCOCC3)c3c(c12)CCCC3	2.4	·	-23.4	1.1	0.655	·	·	·	-19.1
CCOc1ccc(OCCSc2nc3ccccc3c(=O)[nH]2)cc1	2.2	·	-1.0	0.6	0.772	·	·	·	-3.6
O=C(COC(=O)Cc1ccc(Cl)cc1)NCc1ccc(F)cc1	-0.5	i	1.3	12.6	0.665	-4.0	1.2	-1.7	·
O=[N+]([O-])c1cc(S(=O)(=O)C(F)(F)F)ccc1Sc1nc2ccccc2[nH]1	-3.3	·	8.0	12.9	0.741	·	·	·	90.5*
COCCNC(=O)Cn1ccc2cc(S(=O)(=O)N3CCCCC3)ccc21	2.6	i	2.2	-14.4	0.704	2.5	3.5	-2.3	-6.6
C=C(C)C(O)COc1c2occc2c(OC)c2ccc(=O)oc12 (stereo not drawn)	-0.9	i	-4.4	-18.0	0.725	2.6	-3.1	-6.8	·
CCOc1ccccc1NC(=O)Cn1ncc2ccc([N+](=O)[O-])cc21	-0.8	i	4.0	-3.4	0.661	2.2	-6.9	-1.7	-24.0
Cc1ccc(NC(=O)NNC(=O)c2cc3ccccc3cc2O)cc1C	5.3	i	-17.3	0.1	0.671	4.1	20.0	7.8	4.1
OC(c1ccco1)c1nc(-c2cccs2)cs1 (stereo not drawn)	2.8	i	·	·	·	9.1	-1.5	2.6	·
CC(=O)Nc1ccc(NC(=S)Nc2ccc(F)cc2)cc1	-1.9	·	1.3	-2.9	0.708	11.7	9.5	2.4	4.2
CCN(CC)S(=O)(=O)c1cccc(-c2nnc(SCc3nnc(-c4cccs4)o3)n2N)c1	-0.8	·	-2.4	4.8	0.682	·	·	·	·
C/C(=C/C(=O)N1CCc2ccccc21)C(=O)O	1.0	i	2.2	-7.4	0.71	·	·	·	·

The final six records of the part above come first, to join the parts:
SMILES	HNF4A DNA FP	FGF22 binding	UCH37 inh	Beta2AR agonist	E coli growth	rRNA inh HTS	rRNA inh HTS OD600	rRNA inh HTS RFP	ALR H2O2 inh
CCOc1ccccc1NC(=O)Cn1ncc2ccc([N+](=O)[O-])cc21	-0.8	i	4.0	-3.4	0.661	2.2	-6.9	-1.7	-24.0
Cc1ccc(NC(=O)NNC(=O)c2cc3ccccc3cc2O)cc1C	5.3	i	-17.3	0.1	0.671	4.1	20.0	7.8	4.1
OC(c1ccco1)c1nc(-c2cccs2)cs1 (stereo not drawn)	2.8	i	·	·	·	9.1	-1.5	2.6	·
CC(=O)Nc1ccc(NC(=S)Nc2ccc(F)cc2)cc1	-1.9	·	1.3	-2.9	0.708	11.7	9.5	2.4	4.2
CCN(CC)S(=O)(=O)c1cccc(-c2nnc(SCc3nnc(-c4cccs4)o3)n2N)c1	-0.8	·	-2.4	4.8	0.682	·	·	·	·
C/C(=C/C(=O)N1CCc2ccccc21)C(=O)O	1.0	i	2.2	-7.4	0.71	·	·	·	·
O=C(CCc1ccccc1)Nc1ccncc1	-2.3	·	3.4	1.2	0.645	·	·	·	-10.6
C=CCOC(=O)C1=C(C)NC(=O)NC1c1cc2c(cc1Br)OCO2 (stereo not drawn)	1.8	i	3.6	-10.3	0.668	-6.3	-0.8	1.3	-6.8
Cc1c(CNCCc2ccc(Cl)cc2)c(C(=O)O)c(C)n1Cc1ccccc1	2.5	i	6.8	-8.4	0.636	-4.6	-9.7	11.2	-2.9
Cc1ccc(S(=O)(=O)CC(=O)c2ccc([N+](=O)[O-])cc2)cc1	-0.1	i	1.7	4.3	0.658	·	·	·	-1.9
Cc1ccc(NC(=O)Cc2c[nH]c3ccccc23)cc1S(=O)(=O)N1CCCCCC1	0.0	·	-0.7	-0.5	0.692	·	·	·	-1.6
CCn1c(=O)c(C(=O)CN(C)Cc2cccc(OC)c2OC)c(N)n(Cc2ccccc2)c1=O	1.9	·	7.2	3.6	0.743	·	·	·	4.0
CCOC(=O)c1cn2nc(-c3ccc(OCC)cc3)cc2nc1C1CCN(C(=O)OC(C)(C)C)CC1	-0.5	·	-229.1	-4.6	0.759	·	·	·	-14.0
CC12COC3(C(=O)N4CCN(c5ccccn5)CC4)CC1CCC32C (stereo not drawn)	10.8	i	-0.4	-16.1	0.715	-1.1	-4.2	-2.5	-11.0
COc1ccc(/C(C)=N/NC(=O)CNC(=O)/C=C\c2ccco2)cc1	-5.2	i	·	-6.9	·	30.4	9.9	4.2	3.4
O=C(Nc1ccc(F)cc1)Nc1ccccc1F	0.1	i	1.0	-1.3	0.681	7.2	10.6	7.3	21.1
C[C@]12C[C@H](O)[C@@H]3c4ccc(O)cc4CCC3[C@@H]1CCC2=O (stereo partly drawn)	1.5	i	-1.6	-0.1	0.731	-9.6	-9.5	-2.9	·
O=C(O)C1Oc2ccccc2C1c1ccccc1 (stereo not drawn)	1.2	i	-0.2	1.7	0.678	7.3	8.4	2.7	·
CCn1c(-c2cc(Br)cc(OC)c2O)nc2cc(S(=O)(=O)N(C)C)ccc21	-1.7	·	1.4	12.8	0.701	·	·	·	90.7*
COc1cccc(-c2nc(N3CCC(C)CC3)c3ccccc3n2)c1O	1.8	·	6.8	6.0	0.715	·	·	·	0.3
Cn1c(=N)n(CC(=O)c2ccc(F)cc2)c2ccccc21	1.8	i	4.8	-7.0	0.703	9.7	0.1	-2.2	·
COC(=O)CN1C(=O)C(O)(CC(=O)c2ccc(Br)cc2)c2ccccc21 (stereo not drawn)	-5.5	i	5.3	-8.4	0.722	1.3	0.4	-6.9	96.5*
CN(C)S(=O)(=O)c1ccc(-c2cn3ccccc3n2)cc1	0.3	·	i	-1.5	0.68	·	·	·	99.3*
COc1ccc(-c2noc(CN(C(=O)c3ccc4c(c3)OCO4)C(C)C)n2)cc1OC	-1.4	i	-1.7	1.6	0.698	-8.6	-15.6	5.7	·
Cc1[nH]n(-c2ccccc2)c(=O)c1N=Nc1c(Cl)cccc1Cl	4.5	·	5.3	-0.7	0.689	·	·	·	-2.9
CCc1nnc(NC(=O)CCC(=O)O)s1	-3.1	i	3.4	0.6	0.702	3.9	8.7	-0.6	-10.9
O=C(NCc1cccc2[nH]ccc12)C1CCC(=O)N(CCc2ccccc2)C1 (stereo not drawn)	0.6	i	-0.6	-2.3	0.663	8.7	-3.6	3.9	-2.4
COc1ccc(C(=O)NCCn2cc(SCC(=O)N3CCOCC3)c3ccccc32)cc1	-0.2	·	1.6	3.7	0.693	1.3	0.1	-4.3	4.2
CC(C)(CC(=O)OCC(=O)Nc1ccccc1F)CC1=NS(=O)(=O)c2ccccc2N1	-6.5	i	0.8	3.9	0.671	-1.3	-3.0	-0.2	2.0
COc1cc(NC(=O)COC(=O)C2CC(O)CN2S(=O)(=O)c2ccc(Cl)cc2)c(C)cc1[N+](=O)[O-] (stereo not drawn)	-2.8	i	·	-0.8	·	-1.5	-4.9	-2.4	·
COc1ccc(-c2coc3cc(O)cc(O)c3c2=O)cc1	-1.6	+	1.8	10.2	0.594	·	·	·	46.2
Next entries:
SMILES	HNF4A DNA FP	FGF22 binding	UCH37 inh	Beta2AR agonist	E coli growth	rRNA inh HTS	rRNA inh HTS OD600	rRNA inh HTS RFP	ALR H2O2 inh
CN1CCNC(=O)C1CC(=O)NCCc1ccccc1F (stereo not drawn)	-4.8	i	-0.8	-4.0	0.714	14.5	10.8	1.9	-3.9
CCCn1c(NCc2ccc(C)o2)nc2ccccc21	-0.3	·	-2.8	-2.3	0.661	4.4	3.6	1.1	27.7
Cc1ccc(-c2nc(CS(=O)CC(=O)NCCCN3CC(C)CC(C)C3)c(C)o2)cc1 (stereo not drawn)	-3.4	i	3.1	2.6	0.773	2.7	9.1	-6.1	99.2*
COc1c(F)c(F)c(-c2csc(N)n2)c(F)c1F	4.3	·	3.0	6.8	0.719	·	·	·	31.5
CCOc1nc(N2CCCCC2)nc(-n2cc(-c3ccccc3)nn2)n1	-1.5	·	4.6	-12.6	0.694	·	·	·	·
O=C(NCCc1ccccn1)c1cccnc1Oc1ccc(Cl)cc1	-1.9	i	4.4	-1.1	0.662	-7.5	-14.7	-1.9	-7.9
O=C(NCCCN1CCN(c2ccccc2)CC1)Nc1ccccc1C(F)(F)F	-1.7	·	3.5	-3.4	0.749	·	·	·	·
CCc1cccc(C)c1NC(=O)CNCc1ccccc1	0.1	i	2.4	2.2	0.704	2.1	-2.7	-1.8	-2.8
CCCCCc1ccc(-c2ccc(/C=C/C(=O)O)cc2)nc1	-1.2	·	-12.1	2.8	0.657	·	·	·	5.2
CC(C)CC(=O)OCC(=O)Nc1ccccc1Sc1ccccc1	2.4	i	2.1	-5.0	0.68	8.7	1.3	0.0	-0.8
Cc1cccc(C(=O)Nc2cccc(-c3ccc4nncn4n3)c2)c1	-1.5	i	-5.9	11.6	0.687	-12.6	-8.2	-1.5	2.4
CCC(C(=O)NC(CC(=O)O)c1ccc(Cl)cc1)c1ccccc1 (stereo not drawn)	2.1	i	4.7	-0.2	0.65	9.1	2.8	3.9	-1.2
CCCc1ccc(S(=O)(=O)N2CCN(C(=O)c3cc(C)on3)CC2)cc1	2.7	i	·	·	·	0.9	0.5	-0.2	·
CC(C)NC(=O)C1(C)CSCC(=O)N1C1CCN(Cc2ccccc2)CC1 (stereo not drawn)	-5.6	i	·	·	·	21.3	14.8	2.0	·
CCCC1(c2ccccc2)NC(=O)N(C/C=C/Cl)C1=O (stereo not drawn)	2.2	i	·	-6.6	·	2.3	17.8	-3.1	1.5
FC(F)(F)c1cccc(Cc2noc(CN3CCC(c4ccncc4)CC3)n2)c1	3.7	·	0.0	-12.0	0.724	-25.7	-25.1	-4.8	1.6
